# Mtb MenB inh – blocks the Mycobacterium tuberculosis MenB enzyme | 100,000 tested, 0.43% active | inhibition, %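 (about 12 µg/mL by stock and volumes)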 | P9WNP5 | MenB enzyme assay, absorbance read-out; some hits fall short of the stated cut;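 active = mean of two replicates above 30%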;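 note: 0% = no compound and 100% = wells with inactive enzyme; the first replicate is given; strong numbers were not always called active; inactives centre near -10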
# MbtI inh – inhibitors of Mycobacterium tuberculosis siderophore enzyme MbtI; 100,000 tested, 0.89% active; purified MbtI enzyme, fluorescence intensity read-out; inhibition, %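 (about 17 µg/mL by stock and volumes)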; AID 493033;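 active = above 50% in both replicates, above 80% if mildly self-fluorescent; inactive = the rest, strongly fluorescent compounds included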;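 note: 0% = mean of negative and 100% = mean of positive controls; one replicate is shown; some compounds called inactive have numbers as strong as hits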
# Target sequence (P9WFX0 whole entry, looked up): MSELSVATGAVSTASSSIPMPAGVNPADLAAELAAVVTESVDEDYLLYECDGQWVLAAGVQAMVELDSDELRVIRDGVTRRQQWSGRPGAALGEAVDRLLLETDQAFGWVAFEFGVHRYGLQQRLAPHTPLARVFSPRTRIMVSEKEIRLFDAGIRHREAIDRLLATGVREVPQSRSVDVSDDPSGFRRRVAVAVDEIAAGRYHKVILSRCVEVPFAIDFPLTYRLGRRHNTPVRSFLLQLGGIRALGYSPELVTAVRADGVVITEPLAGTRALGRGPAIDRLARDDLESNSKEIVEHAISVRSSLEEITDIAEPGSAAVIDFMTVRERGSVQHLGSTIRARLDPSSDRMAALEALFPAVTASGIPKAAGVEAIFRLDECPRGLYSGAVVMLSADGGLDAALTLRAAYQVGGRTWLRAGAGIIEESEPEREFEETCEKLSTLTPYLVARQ
# Polio RdRp inh – poliovirus RNA polymerase inhibition; % elongation, % (compound at 16.7 µg/mL); poliovirus polymerase elongation, fluorescence polarization; stronger effect = lower value; 150,000 tested, 0.66% active; P03300; in the data active = % elongation below about 90%; note: some results filed as inactive read as strong as hits
# Target sequence (P03300 1749-2209 limits assumed): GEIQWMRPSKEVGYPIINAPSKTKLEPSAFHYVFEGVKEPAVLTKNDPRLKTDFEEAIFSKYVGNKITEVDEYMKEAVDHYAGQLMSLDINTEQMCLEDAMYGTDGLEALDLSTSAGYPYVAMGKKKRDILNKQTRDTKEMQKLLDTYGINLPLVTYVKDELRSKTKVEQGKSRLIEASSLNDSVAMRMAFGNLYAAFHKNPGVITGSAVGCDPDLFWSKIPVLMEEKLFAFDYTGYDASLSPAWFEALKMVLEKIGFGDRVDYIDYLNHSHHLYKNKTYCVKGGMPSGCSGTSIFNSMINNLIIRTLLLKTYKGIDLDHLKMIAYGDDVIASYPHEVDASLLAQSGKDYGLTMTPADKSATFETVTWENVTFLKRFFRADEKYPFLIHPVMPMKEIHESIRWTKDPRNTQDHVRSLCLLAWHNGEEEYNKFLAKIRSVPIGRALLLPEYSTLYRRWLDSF
# Polio RdRp inh intensity – recorded beside Polio RdRp inh, whose call it bears; % elongation; measured here: total intensity read-out; formula for this scale not given here;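 total fluorescence in place of polarization; lower means less elongation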
# Starred values were filed as active, the others as inactive; / = no result given.
SMILES,Mtb MenB inh,MbtI inh,Polio RdRp inh,Polio RdRp inh intensity
CC(C)Cn1c(-c2ccc(Cl)cc2)cnc1SCC(=O)N1CCCC1,-24.8,0.1,101.0,103.0
Cc1csc(=O)n1CC(=O)Nc1ccccc1,-11.0,11.9,105.0,108.0
CCCOc1ccc(-c2ccc(C(=O)O)cc2)cc1,6.4,/,100.0,103.0
CCOC(=O)c1ccc(NC(=O)NCc2noc3ccc(C)cc23)cc1,-18.6,-8.7,100.0,102.0
CC1CCCCN1C(=O)c1cccs1 (configuration not stated),-16.9,/,102.0,109.0
CCN1CCN(C(=S)Nc2ccccc2)CC1,20.7,7.6,100.0,103.0
O=S(=O)(c1cccc2nsnc12)N(CCOc1ccccc1)C1CCCCC1,-20.6,-6.3,102.0,100.0
O/C(=C\c1ccc2ccccc2n1)c1ccc(O)cc1O,/,-6.4,118.0,153.0
CCCCS(=O)(=O)NC1CCCCCCC1,-1.9,-9.0,102.0,104.0
Cc1c(C(=O)N(C)Cc2ccccc2)sc2ncn(CC(=O)N3CC(C)CC(C)C3)c(=O)c12 (configuration not stated),-66.7,-3.1,99.0,97.0
CCn1c(C)c2c(C)nn3cc(C)cc3c2c1C,-26.1,-7.5,99.0,105.0
O=C(CO/N=C/c1ccco1)Nc1cccc(I)c1,-4.8,-10.8,108.0,113.0
CC1CCCCC1NC(=O)COC(=O)COc1ccccc1F (configuration not stated),-20.3,0.0,105.0,109.0
O=C1COc2c1c1c(c3oc(=O)ccc23)C(=O)CO1,-22.1,-150.8,100.0,100.0
CCOc1cc(C2N(C)C(=O)c3ccccc3N2C)ccc1O (configuration not stated),-26.0,18.4,100.0,102.0
c1csc(-c2nc(N3CCN(Cc4ccc5c(c4)OCO5)CC3)c3ccccc3n2)c1,-12.1,70.0,104.0,107.0
CCOC(=O)c1c(CC(C)C)csc1N,/,-6.2,101.0,105.0
COC(=O)c1c(C)c(C)[nH]c(=O)c1C#N,-6.7,/,100.0,110.0
CCOc1ccc(NC(=O)C(C)N(c2ccc(OCC)cc2)S(C)(=O)=O)cc1 (configuration not stated),-4.4,-8.7,101.0,101.0
CCCCn1c(CCC(=O)Nc2ccc(NC(C)=O)cc2)nc2cc(S(=O)(=O)N(C)C)ccc21,4.7,-16.6,110.0,108.0
Cn1c(C(=O)N(Cc2ccccc2)Cc2cccs2)cc2sccc21,-43.0,4.2,102.0,97.0
CCC(=O)N1N=C(c2ccc(NS(C)(=O)=O)cc2)CC1c1ccccc1 (configuration not stated),-12.6,105.6,101.0,105.0
CC(C)(C)C(=O)COC(=O)Cn1nc(C(N)=O)c2ccccc2c1=O,-5.9,-0.2,102.0,106.0
Cc1cccc(C)c1NC(=O)C(c1ccc(N(C)C)cc1)N1C(=O)CC1c1ccco1 (configuration not stated),-19.4,/,105.0,95.0
CCSc1nnc(-c2sc3ccccc3c2Cl)o1,-20.6,-17.8,101.0,104.0
CC(=O)N1CN(C(C)=O)C(O)C1O (configuration not stated),-36.0,-5.8,103.0,103.0
Cc1cc(I)ccc1NC(=O)c1ccc2c(c1)SC1=NS(=O)(=O)CCN12,-16.1,32.7,105.0,102.0
CN(C)C(=O)CSc1nnc(-c2ccc(O)cc2)o1,-17.9,55.2,101.0,104.0
O=C(O)CCCc1cccs1,-23.1,-21.9,100.0,99.0
O=C1c2ccccc2-c2n[nH]c(=O)c3ccc(N4CCOCC4)c1c23,-3.6,-9.7,101.0,105.0
O=c1nc2c3ccccc3ncn2[nH]1,5.5,-7.6,101.0,109.0
CC1(C)CC(=O)c2c(C(=O)O)coc2C1,-5.1,-3.0,105.0,103.0
CN1C2=C(C#N)C(=O)C(c3ccccc3)N2c2ccccc21 (configuration not stated),-8.5,-0.1,102.0,103.0
O=C1C(C=NCCCN2CCOCC2)=C(O)c2ccccc21,-1.7,25.4,101.0,104.0
CC1C(O)=C(c2nc3ccccc3[nH]2)C(=N)N1c1ccccc1 (configuration not stated),-19.1,-277.4,100.0,107.0
Cc1cc(C)nc(SCC(=O)N2CCOCC2)n1,-12.8,-11.2,101.0,101.0
CCOC(=O)COc1nc(-c2ccccc2)sc1C(=O)OCC,4.7,8.3,100.0,97.0
CCc1nc2ccccc2c2nc(NC(=O)C(F)(F)F)nn12,-14.1,86.3,105.0,107.0
COc1ccc(-n2cc(C#N)c(=O)[nH]c2=O)cc1,-10.2,-1.1,105.0,101.0
O=C(COC(=O)Cn1cnc2ccccc2c1=O)NC1CCCC1,-2.4,0.6,107.0,116.0
COc1ccc(O)c(-c2cn[nH]c2-c2cccs2)c1,10.1,27.6,102.0,103.0
Cc1ccccc1CN1C(=O)C(O)(CC(=O)c2ccc3c(c2)CCCC3)c2ccccc21 (configuration not stated),-26.2,3.8,100.0,93.0
O=C(CSC1=NCCS1)Nc1ccc(Br)cc1C(=O)c1ccccc1Cl,-17.6,/,97.0,104.0
Cc1ccc(Nc2nc(N)nc(COC(=O)CN3CCCC3=O)n2)cc1,-7.0,-4.6,107.0,115.0
O=C(Nc1ccc2c3c(cccc13)S(=O)(=O)N2)c1ccccc1,-42.5,/,105.0,110.0
Oc1oc(-c2ccc(Br)cc2)nc1C=Nc1ccccc1,-10.8,-9.7,101.0,106.0
COc1ccccc1NC(=O)NCc1nc2nc(C)cc(C)n2n1,-20.3,-6.6,105.0,102.0
C[n+]1ccccc1-c1nc2ccccc2s1,-27.8,14.9,104.0,105.0
CCn1c(=O)c(C(=O)Nc2ccc(Cl)cn2)c(O)c2ccccc21,15.6,-5.2,104.0,102.0
CCOC(=O)C1=C(C)Nc2ccccc2N=C1NC(=O)C1CC2C=CC1C2 (configuration not stated),3.5,-5.1,105.0,106.0
N#CC(C(=O)C1CCCCC1)c1nc2ccccc2s1 (configuration not stated),/,5.5,101.0,111.0
CC1CCN(C(=O)COC(=O)c2ccc(Cl)nc2)CC1,/,-12.7,103.0,106.0
CCn1c(CCc2ccccc2)nnc1SCC(=O)Nc1cccc(OC)c1,-10.8,-5.5,100.0,104.0
Cc1cc(Cl)ccc1OC(C)C(=O)OCC(=O)Nc1ccc2[nH]c(=O)[nH]c2c1 (configuration not stated),-37.8,-10.1,105.0,103.0
Clc1ccc(-c2nnn3c2nc(NCc2ccco2)c2ccccc23)cc1,9.3,1.9,100.0,103.0
CC(C)C1C(c2ccccc2)N(C)C(c2ccccc2)CC1(O)c1ccccc1 (configuration not stated),-20.5,/,108.0,108.0
COc1ccc(Cl)cc1NC(=O)COc1ccccc1,/,-7.3,100.0,99.0
O=C(O)CCc1ccccc1O,-19.8,-7.1,100.0,105.0
Cc1ccc(C#N)c(SCC(=O)O)n1,-2.7,-2.1,98.0,102.0
O=S(=O)(c1ccc(F)cc1F)n1nccc1-c1ccc(-c2ccc(F)cc2F)o1,-25.0,-7.1,103.0,105.0

# (more compounds)
SMILES,Mtb MenB inh,MbtI inh,Polio RdRp inh,Polio RdRp inh intensity
CC1Cc2cc(S(=O)(=O)NN3CCOCC3)ccc2N1C(=O)C1CC1 (configuration not stated),-7.1,-0.4,100.0,104.0
O=C1c2ccccc2C(=O)N1c1nccc(Br)c1Br,1.5,/,98.0,96.0
O=C1CCc2cc(C(=O)CSc3nnnn3C3CCCC3)ccc2N1,-14.0,-0.1,100.0,104.0
O=C(NCCNc1ccc2ccccc2c1)c1cccn2c(=O)c3sccc3nc12,3.0,10.7,103.0,96.0
Cc1ccnc(NCn2cnc3ccccc32)c1,14.4,38.7,98.0,101.0
COC(=O)c1cc(OC)c(OC)cc1NC(=O)CC1CCCCC1,-2.2,-200.8,100.0,104.0
O=C(O)c1ccccc1NCn1nnc2ccccc21,-3.9,/,106.0,105.0
O=S1(=O)CCC(S(=O)(=O)C2CCS(=O)(=O)C2)C1 (configuration not stated),-20.8,/,107.0,103.0
O=C(CSc1ccc2c(c1)OCCO2)NCC1COc2ccccc2O1 (configuration not stated),3.7,-6.1,104.0,107.0
C=CCn1c(=S)[nH]c2ccccc21,-17.5,20.8,99.0,104.0
COc1cccc(-n2c(SCC(=O)Nc3ccccc3)nc3c(oc4ccccc43)c2=O)c1,-53.7,-1.5,100.0,95.0
COCCOC(=O)c1c(C)oc2cc(Br)c(OCC(=O)c3ccc(OC)cc3)cc12,-31.6,1.0,99.0,100.0
CCCCN(c1ncnc2onc(-c3ccc(F)cc3)c12)C1CCN(C(C)=O)CC1,-4.8,-64.2,102.0,103.0
Cc1cccc(C(=O)N(CCN2C(=O)c3ccccc3C2=O)c2cccc3ccccc23)c1,-10.1,/,101.0,102.0
O=C1NS(=O)(=O)c2ccccc2S(=O)(=O)c2ccccc21,6.5,0.1,100.0,101.0
N/N=C/C1=C(N2CCOCC2)C(=C\c2ccccc2)/CC1,-30.4,8.0,149.0,165.0
CCCN1C(=O)/C(=N\OCC(=O)N2CCCc3ccccc32)c2ccccc21,2.4,2.9,101.0,100.0
CCCc1cc2c(=O)c(-c3csc(C)n3)coc2cc1O,-22.0,-6.5,109.0,98.0
CCOC(=O)c1csc(-c2sccc2COc2ccccc2)n1,-10.5,8.1,103.0,100.0
Cc1ccc(Cn2cc(CCC(=O)O)c3ccccc32)cc1,5.8,3.3,103.0,100.0
O=C(Cn1c(=O)sc2ccccc21)Nc1nc2c(s1)CCCC2,23.5,5.8,100.0,100.0
Nc1nn2cc(-c3ccccc3)nc2s1,/,0.4,103.0,104.0
COc1ccccc1N1CCN(CC(=O)N2CCCC2)CC1,20.3,-11.5,100.0,101.0
CC1CCN(Cn2nc(-c3ccc(F)cc3)oc2=O)CC1,-0.2,-40.0,102.0,103.0
CN1C(=O)C2C=CC=CC2N=C1SCC(N)=O (configuration not stated),-18.4,/,99.0,98.0
CCOC(=O)c1sc(N/N=C/C2CC=CCC2)nc1C (configuration not stated),-21.1,-4.3,100.0,99.0
CCC(C)c1ccc(NC(=O)COC(=O)c2ccco2)cc1 (configuration not stated),/,-4.2,99.0,101.0
C=CCN1C(=O)C(C)(C)N(C(C)=O)c2ccccc21,32.6,0.8,102.0,102.0
O=C(CN1CCCC1)Nc1ccc(F)cc1,-35.8,-3.0,100.0,99.0
CN(C)c1nc2ncnc(N)c2[nH]1,-2.6,/,102.0,104.0

# Exported with values under each structure: part of the list above.
# The line under a structure holds: Mtb MenB inh | MbtI inh | Polio RdRp inh | Polio RdRp inh intensity
N/N=C/C1=C(N2CCOCC2)C(=C\c2ccccc2)/CC1
    -30.4 | 8.0 | 149.0 | 165.0
CCCN1C(=O)/C(=N\OCC(=O)N2CCCc3ccccc32)c2ccccc21
    2.4 | 2.9 | 101.0 | 100.0
CCCc1cc2c(=O)c(-c3csc(C)n3)coc2cc1O
    -22.0 | -6.5 | 109.0 | 98.0
CCOC(=O)c1csc(-c2sccc2COc2ccccc2)n1
    -10.5 | 8.1 | 103.0 | 100.0
Cc1ccc(Cn2cc(CCC(=O)O)c3ccccc32)cc1
    5.8 | 3.3 | 103.0 | 100.0
O=C(Cn1c(=O)sc2ccccc21)Nc1nc2c(s1)CCCC2
    23.5 | 5.8 | 100.0 | 100.0
Nc1nn2cc(-c3ccccc3)nc2s1
    / | 0.4 | 103.0 | 104.0
COc1ccccc1N1CCN(CC(=O)N2CCCC2)CC1
    20.3 | -11.5 | 100.0 | 101.0
CC1CCN(Cn2nc(-c3ccc(F)cc3)oc2=O)CC1
    -0.2 | -40.0 | 102.0 | 103.0
CN1C(=O)C2C=CC=CC2N=C1SCC(N)=O (configuration not stated)
    -18.4 | / | 99.0 | 98.0
CCOC(=O)c1sc(N/N=C/C2CC=CCC2)nc1C (configuration not stated)
    -21.1 | -4.3 | 100.0 | 99.0
CCC(C)c1ccc(NC(=O)COC(=O)c2ccco2)cc1 (configuration not stated)
    / | -4.2 | 99.0 | 101.0
C=CCN1C(=O)C(C)(C)N(C(C)=O)c2ccccc21
    32.6 | 0.8 | 102.0 | 102.0
O=C(CN1CCCC1)Nc1ccc(F)cc1
    -35.8 | -3.0 | 100.0 | 99.0
CN(C)c1nc2ncnc(N)c2[nH]1
    -2.6 | / | 102.0 | 104.0

# (further entries)
SMILES,Mtb MenB inh,MbtI inh,Polio RdRp inh,Polio RdRp inh intensity
CC1CCc2c(nc3nc[nH]n3c2=O)C1 (configuration not stated),-5.1,59.4,103.0,104.0
Cc1ccc(COc2ccc3c(c2)OCO3)cc1,-0.8,-2.9,107.0,105.0
c1ccc2c(c1)nc(N1CCOCC1)c1ccccc12,-22.2,-239.2,106.0,101.0
O=C1C2C(C(=O)N1CCO)C1C=CC2C12CC2 (configuration not stated),-8.5,-16.1,105.0,106.0
N#Cc1cn(CC(=O)Nc2ccc(Br)cc2)c2ccccc12,0.0,-10.9,102.0,103.0
Cc1nc(SC(C)C(=O)NC2CC2)n(C2CCCC2)c1C (configuration not stated),-23.0,-6.5,103.0,96.0
COC(=O)C(NC(=O)Nc1ccccc1)C(C)C (configuration not stated),-20.9,/,102.0,104.0
Cc1nc(/C(N)=N/O)c(C(F)(F)F)o1,-4.4,4.4,100.0,99.0
O=C(NCCC1=CCCCC1)c1ccc(Cl)cc1,-2.4,/,110.0,111.0
Cc1cc(N2C(=O)c3ccccc3C2=O)no1,-26.8,-5.4,101.0,102.0
N#CCCn1cc(C(=O)CN2C(=O)NC(c3ccccc3)(c3ccccc3)C2=O)c2ccccc21,-17.5,17.6,105.0,106.0
CC(C)n1nc(C(=O)OCc2cc(=O)n3c4c(sc3n2)CCCC4)c2ccccc2c1=O,3.9,-0.3,102.0,110.0
CC1CCC2C(C)C(=O)OC3OC4(C)CCC1C32OO4 (configuration not stated),0.4,7.1,99.0,100.0
COC(=O)C1=NN(c2c(C)cccc2Cl)C(=O)C1,15.2,-16.2,104.0,111.0
O=C(CN1CCSc2ccccc21)Nc1ccc2c(c1)OCCO2,-11.2,-5.2,108.0,125.0

# From PubChem
